Assay outcomes deposited in PubChem by National Center for Advancing Translational Sciences (NCATS).
Rango-impB inh: prevents formation of the Rango-importin beta complex. Q14974. 340,000 compounds, 0.031% hits. Rango CFP/YFP FRET sensor + importin beta, 45 min. Potency, µM (doses to about 92.2 µM), for the others: at the highest dose inhibition of complex formation; active = rising FRET ratio curve, often small or poorly fitted; inconclusive = mostly compound fluorescence or quenching in the first reads; inactive = flat curves in all reads;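 further: potency means the concentration at half of the fitted maximal effect; 0% = DMSO wells and 100% = buffer wells lacking importin beta; nearly all actives have a fitted effect of over 15% in size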
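FRET biosensor Rango (snurportin 1 IBB between N-terminal EYFP and C-terminal Cerulean), 50 nM in PBS/1 mM DTT/0.02% Tween-20/0.1% BSA, preincubated 5 min RT with compound; 0.125 microM importin beta added, 45 min RT, CFP/YFP FRET ratio read.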
Rango release inh: inhibitors of RanGTP-induced Rango-importin beta complex dissociation. O95149+P62826. Biochemical FRET Rango-importin beta, RanGTP-induced dissociation. Potency, µM (highest dose often 46.1 µM), for inactives: at the top dose activity change, negative = inhibition. 340,000 compounds, 0.071% hits. AID 540253; active means falling FRET ratio curve, often poorly fitted, with flat reads before Ran was added; inconclusive means other falling curves, or compound fluorescence or quenching; inactive means flat or rising ratio curve;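 further: potency means the concentration at half of the fitted maximal effect; % of control where 0% means no effect; nearly all actives have a fitted effect of over 45% in size; -100% = wells without RanGTP and RCC1; the record marks most hits as doubtful in a second field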
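Rango/importin beta premix (0.1/0.25 uM final), PBS + 1 mM DTT + 0.02% Tween-20 + 0.1% BSA; cpd 5 min RT; FRET pre-read; + RanGTP-RCC1 (0.6 uM Ran, 2 mM GTP, 0.2 uM RCC1); 45 min RT; FRET post-read, ex 430, em 486/530 nm.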
miR-21 reporter: raises the signal of a miR-21 reporter. AID 2288. Potency, µM (series often up to 38.3 µM), for inactives: at the highest dose reporter change, positive = more light. 340,000 tested, under 10 active. HeLa miR-21 FLuc reporter, luciferase, 48 h; active = well fitted rising curve with a large enough effect; inconclusive = small, poorly fitted or top-dose-only effect; inactive = no such curve, though single readings can be large or run the other way;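 further: % of control where 0% means no effect; miR-21 action dims this reporter so a rising signal means less miR-21 action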
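HeLa cells stably expressing CMV-driven firefly luciferase with a downstream miR-21 binding sequence, endogenously expressing miR-21, were treated with titrations (up to about 40uM final) for 48 hours at 37 degree Celsius. Luciferase luminescence was read after lysis.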
GLA inh pH 4.5: inhibitors of human alpha-galactosidase A at pH 4.5. AID 1467. 230,000 tested, under 10 active. purified enzyme, 4-MU-alpha-Gal fluorescence, pH 4.5. P06280. activity change, negative = inhibition, % at 105 µM; inconclusive = small, poorly fitted or top-dose-only inhibition, or a rising curve; inactive = flat fitted curve, though single readings scatter; no compound was filed as active;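 further: 0% = full activity with enzyme and -100% = basal without enzyme; dose as in the result columns while the protocol names 77 µM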
Target sequence (P06280 whole entry, looked up): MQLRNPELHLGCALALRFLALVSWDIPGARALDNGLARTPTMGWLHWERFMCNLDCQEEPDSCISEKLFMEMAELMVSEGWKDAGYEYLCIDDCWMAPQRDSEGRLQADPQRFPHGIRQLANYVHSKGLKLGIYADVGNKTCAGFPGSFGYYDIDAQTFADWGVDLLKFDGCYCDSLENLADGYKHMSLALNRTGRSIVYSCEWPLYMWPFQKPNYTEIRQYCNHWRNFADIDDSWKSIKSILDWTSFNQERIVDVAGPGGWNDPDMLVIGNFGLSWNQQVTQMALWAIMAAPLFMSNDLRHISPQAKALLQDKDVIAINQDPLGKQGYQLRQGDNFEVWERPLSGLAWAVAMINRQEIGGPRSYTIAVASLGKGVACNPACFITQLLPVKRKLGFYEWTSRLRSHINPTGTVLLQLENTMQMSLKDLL
* hit, by the source's call; ? = inconclusive; . = no result given; & = joins results of further samples. This is a subset; rates above refer to the full screens.

SMILES | Rango-impB inh | Rango release inh | miR-21 reporter | GLA inh pH 4.5
Cc1ccc(S(=O)(=O)NC2CC2)cc1 | -0.4% | -3% | 2% | .
COc1ccc(Nc2nc(NCC3CCCO3)nc(N)c2[N+](=O)[O-])cc1 (stereo unspecified) | 1.9% | 18% | -2% | -11
CCCc1nnc(NC(=O)CN2C(=O)c3ccccc3C2=O)s1 | 3.6% | -6% | -1% | 5
CN(C1CCCCC1)S(=O)(=O)c1ccc(NC(=O)c2ccco2)cc1 | 3.9% | -4% | -1% | -2
COc1ccc2[nH]c(O)c(N=NC(=O)Cc3cccs3)c2c1 | -3.6% | 1% | -16% | -5
CCN1CCN(C(c2nnnn2Cc2ccc3c(c2)OCO3)C(C)C)CC1 (stereo unspecified) | -0.1% | -1% | -1% | -20
Cc1ccc2nc(NC(=O)C3CCCN(S(=O)(=O)c4cccc5nsnc45)C3)sc2c1 (stereo unspecified) | 0.1% | 2% | 17% | -11
O=C(COC(=O)Cc1c[nH]c2ccccc12)NCCc1ccccc1 | -0.3% | -4% | . | .
Cc1ccc(NC(=O)COC(=O)Cn2cnc3ccccc32)c(C)c1 | -1.3% | -2% | . | .
CCn1c(COc2ccc(OC)cc2)nnc1SCC(=O)Nc1cc(OC)ccc1OC | -1.5% | -8% | 0% | -5
O=c1cc(Cn2nnc(-c3ccc(Cl)cc3)n2)nc2sccn12 | -2.0% | -5% | 1% | -1
CCNC(=S)Nc1cc(Cl)ccc1Oc1ccccc1 | 6.9% | 18% | -5% | -20
CCCCN1C(=O)c2ccc(C(=O)Nc3cccc(C)c3C)cc2C1=O | 1.2% | 1% | -3% | 7
Cc1ccc2[nH]c3c(=O)n(CC(=O)NCCc4ccc(Cl)cc4)ncc3c2c1 | -3.7% | -5% | -4%&1% | .
CCN(CC)S(=O)(=O)c1ccc(N2CCOCC2)c(NC(=O)c2ccc(NC(C)=O)cc2)c1 | -2.9% | -2% | -1% | -4
O=C(Cc1ccc(Cl)cc1)NN1C(=O)c2ccccc2C1=O | -4.2% | 11% | -2% | -1
CSCCC(NS(=O)(=O)c1ccc(Cl)cc1)C(=O)OCc1c(Cl)cccc1Cl (stereo unspecified) | 0.1% | 14% | 1% | -11
Cc1csc(NC(=O)C2CCCN(S(=O)(=O)c3cccnc3)C2)n1 (stereo unspecified) | -6.4% | -9% | 6% | 4
CC(C)C(NS(=O)(=O)c1cccs1)C(=O)NCc1ccccc1 (stereo unspecified) | 3.3% | 1% | 1% | .
CCOc1ccc(/C=C/C(=O)Oc2ccccc2)cc1 | 2.2% | 8% | 1% | .
CC(=O)c1c(C)[nH]c(C(=O)OCc2cc(=O)n3cc(Br)ccc3n2)c1C | -1.6% | -14% | . | .
COCCNC(=O)Cn1c(=O)n(Cc2ccco2)c(=O)c2ccccc21 | 0.5% | 26% | -1% | 4
CCc1c(C)nc2[nH]ncn2c1=O | 1.0% | 5% | . | .
CCN(CC(=O)NCc1cccs1)C(=O)CCOc1ccccc1C | 0.6% | -3% | -1% | .
Cc1ccc(NC(=O)C2CC(=O)NC(N3CCCCC3)=N2)cc1Cl (stereo unspecified) | 3.2% | 8% | -5% | -1
CCn1nnnc1SCC(=O)N1N=C(c2cccs2)CC1c1cccs1 (stereo unspecified) | 0.7% | 1% | . | .
CCn1c(=O)c(C(=O)Nc2ccccn2)c(O)c2ccccc21 | -2.8% | 4% | -1% | 8
Clc1ccc(-n2nnnc2CN2CCOCC2)cc1Cl | 4.7% | 6% | -7% | -3
O=C(OCC(=O)N1CCC(Cc2ccccc2)CC1)c1ccc[nH]c1=O | 0.3% | 1% | -1% | -2
CC(Sc1nc2ccccc2c(=O)n1C)C(=O)N(C)C1CCCCC1 (stereo unspecified) | 4.4% | -5% | . | .
NC(=S)NN=C1c2cc(OCCN3CCOCC3)ccc2-c2ccc(OCCN3CCOCC3)cc21 | -0.7% | 3% | ? | .
CC(NC(=O)C(=O)NN=C1CCCCCCC1)c1ccccc1 (stereo unspecified) | -2.1% | 0% | 1% | 0
O=C(CNC(=O)c1cccc(F)c1)OCc1cc(=O)n2cc(Br)ccc2n1 | -4.4% | -10% | -4% | -2
Cc1nc(SCc2ccc(Cl)cc2)ncc1C(=O)O | -1.7% | 1% | -3% | 2
CCOc1ccc(-c2nnc(NC(=O)c3ccc(OCC(C)C)c(OC)c3)o2)cc1 | -0.9% | 3% | -29% | 3
COc1ccccc1N1CCc2c(C)nc3c(OC)cccc3c21 | 3.2% | -1% | 22% | -3
CC(C)(C)OC(=O)NN1CC(=O)N2Cc3ccccc3C[C@@H]2C1=O | -1.1% | 12% | 0% | .
Cc1ccc(CC(=O)O/N=C(\N)c2cccc([N+](=O)[O-])c2)cc1 | 6.2% | -12% | -24% | 0
O=C(O)c1ccc(S(=O)(=O)NCC2CCCO2)cc1 (stereo unspecified) | -5.0% | 9% | 2% | .
CCCCCOc1ccc(C(O)C(CN2CCOCC2)c2ccccc2)cc1 (stereo unspecified) | -1.9% | 13% | 15% | .
Nc1nc(N)c2[nH]c(-c3ccccc3)nc2n1 | -6.2% | -13% | -12% | .
CCC(C)C(NC(C)=O)C(=O)NC(=O)NC(c1ccccc1)c1ccccc1 (stereo unspecified) | 0.2% | -2% | 4% | 4
COc1ccc(NC(=O)Nc2c(C)n(-c3ccccc3)c(=O)n2C)cc1OC | -0.5% | -14% | -4% | 6
Cn1cnnc1SCC(=O)c1ccc2c(c1)NC(=O)CO2 | -3.4% | 11% | . | .
CN(Cc1ccccc1)C(=O)CCc1ccccc1 | -2.5% | 8% | -12% | -9
CCC(C)N(C(=O)CSc1nnc(-c2cccs2)n1C1CC1)C1CCS(=O)(=O)C1 (stereo unspecified) | -0.7% | 24% | . | .
O=C(Cn1cc(C(=O)c2ccco2)c2ccccc21)NC1CCCC1 | -2.0% | 2% | -5% | 2
O=c1[nH]c(/C=C/c2ccccc2[N+](=O)[O-])nc2ccccc12 | 1.2% | 0% | -11% | -3
O=C(NCC(c1ccco1)N1CCN(c2ccccc2F)CC1)C1CCCCC1 (stereo unspecified) | -0.8% | -4% | . | .
COC(=O)C1=C(C)NC(=O)C1(NS(=O)(=O)c1ccc(C)cc1)C(F)(F)F (stereo unspecified) | 0.0% | 1% | 0% | 3

19 entries from above, in markdown:
| Molecule | Rango-impB inh | Rango release inh | miR-21 reporter | GLA inh pH 4.5 |
| --- | --- | --- | --- | --- |
| O=C(COC(=O)Cc1c[nH]c2ccccc12)NCCc1ccccc1 | -0.3% | -4% | . | . |
| Cc1ccc(NC(=O)COC(=O)Cn2cnc3ccccc32)c(C)c1 | -1.3% | -2% | . | . |
| CCn1c(COc2ccc(OC)cc2)nnc1SCC(=O)Nc1cc(OC)ccc1OC | -1.5% | -8% | 0% | -5 |
| O=c1cc(Cn2nnc(-c3ccc(Cl)cc3)n2)nc2sccn12 | -2.0% | -5% | 1% | -1 |
| CCNC(=S)Nc1cc(Cl)ccc1Oc1ccccc1 | 6.9% | 18% | -5% | -20 |
| CCCCN1C(=O)c2ccc(C(=O)Nc3cccc(C)c3C)cc2C1=O | 1.2% | 1% | -3% | 7 |
| Cc1ccc2[nH]c3c(=O)n(CC(=O)NCCc4ccc(Cl)cc4)ncc3c2c1 | -3.7% | -5% | -4%&1% | . |
| CCN(CC)S(=O)(=O)c1ccc(N2CCOCC2)c(NC(=O)c2ccc(NC(C)=O)cc2)c1 | -2.9% | -2% | -1% | -4 |
| O=C(Cc1ccc(Cl)cc1)NN1C(=O)c2ccccc2C1=O | -4.2% | 11% | -2% | -1 |
| CSCCC(NS(=O)(=O)c1ccc(Cl)cc1)C(=O)OCc1c(Cl)cccc1Cl (stereo unspecified) | 0.1% | 14% | 1% | -11 |
| Cc1csc(NC(=O)C2CCCN(S(=O)(=O)c3cccnc3)C2)n1 (stereo unspecified) | -6.4% | -9% | 6% | 4 |
| CC(C)C(NS(=O)(=O)c1cccs1)C(=O)NCc1ccccc1 (stereo unspecified) | 3.3% | 1% | 1% | . |
| CCOc1ccc(/C=C/C(=O)Oc2ccccc2)cc1 | 2.2% | 8% | 1% | . |
| CC(=O)c1c(C)[nH]c(C(=O)OCc2cc(=O)n3cc(Br)ccc3n2)c1C | -1.6% | -14% | . | . |
| COCCNC(=O)Cn1c(=O)n(Cc2ccco2)c(=O)c2ccccc21 | 0.5% | 26% | -1% | 4 |
| CCc1c(C)nc2[nH]ncn2c1=O | 1.0% | 5% | . | . |
| CCN(CC(=O)NCc1cccs1)C(=O)CCOc1ccccc1C | 0.6% | -3% | -1% | . |
| Cc1ccc(NC(=O)C2CC(=O)NC(N3CCCCC3)=N2)cc1Cl (stereo unspecified) | 3.2% | 8% | -5% | -1 |
| CCn1nnnc1SCC(=O)N1N=C(c2cccs2)CC1c1cccs1 (stereo unspecified) | 0.7% | 1% | . | . |

The list continues.
SMILES | Rango-impB inh | Rango release inh | miR-21 reporter | GLA inh pH 4.5
CCOc1ccc(N2C(=O)CS/C2=N/NC(=O)COc2ccc3ccccc3c2)cc1 | 1.1% | -14% | -1% | -8
CNC(=O)c1cc(C)c(-c2ccccc2)s1 | -4.8% | -10% | -45% | 0
Cc1ccc(S(=O)(=O)N(C)/N=C2/C(=O)N(CC(=O)O)c3ccccc32)cc1 | -0.7% | -5% | 3% | .
O=C(/C=C/c1ccccc1)NC(NC(=S)Nc1cccc(O)c1)C(Cl)(Cl)Cl (stereo unspecified) | 0.8% | -8% | 14% | 3
CCN(CC)CC(=O)Nc1ccc(Oc2ccc(NC(=O)CN(CC)CC)cc2)cc1 | ? | -14% | -13% | -20
CC1=C(C(=O)Nc2ccccc2)C2(CCCCC2)C(C#N)=C(SCC(N)=O)N1 | 7.2% | 21% | 3% | -11
COc1ccc(CNC(=O)CN2C(=O)c3ccccc3C2=O)cc1 | 2.8% | -16% | -2% | .
CCN1C(=O)N(c2ccc(Cl)cc2)C(C)=CC1(C)C | -2.0% | 0% | 0% | 3
Cc1ccccc1NC1=C/C(=N\S(=O)(=O)c2ccc(C(=O)O)cc2)c2ccccc2C1=O | ? | -19% | -15% | .
[O-]/C(=C(\C(=S)NCc1ccccc1)[n+]1ccccc1)c1ccc(Cl)s1 | -1.9% | -1% | -9% | -4
Cc1cc2nc(C)c(Cl)c(=O)n2[nH]1 | 0.0% | 1% | 0% | -9
O=C(CCN=C1NS(=O)(=O)c2ccccc21)OCC(=O)c1ccccc1 | 3.0% | 34% | . | .
CN(Cc1ccccc1)Cc1nc2c(c(=O)n(C)c(=O)n2C)n1Cc1ccccc1Cl | -0.8% | 0% | -5% | -10
O=C(COC(=O)c1ccc2c(c1)S(=O)(=O)N=C1CCCCCN12)NCCc1ccc(F)cc1 | -2.8% | -6% | 1% | 11
CC1CCCCN1Cc1cnc(Cl)s1 (stereo unspecified) | -0.7% | 1% | -7% | 9
Cc1cccc(C)c1NC(=O)CN1CCN(CCCC(c2ccc(F)cc2)c2ccc(F)cc2)CC1 | 0.6% | 2% | . | -6
O=C(Cc1n[nH]c(=O)[nH]c1=O)N/N=C/CCc1ccccc1 | 5.0% | 0% | -22% | 7
Cc1ccc2cc(CN(Cc3nnnn3C3CCCCC3)CC3CCCO3)c(=O)[nH]c2c1 (stereo unspecified) | -1.6% | 2% | -12% | -1
Cn1nnnc1Sc1ncnc2scc(-c3ccc4c(c3)OCO4)c12 | 4.5% | -5% | . | .
CC(NC(N)=O)C(=O)Nc1ccc(Cl)c(S(=O)(=O)Nc2ccc(Cl)cc2)c1 (stereo unspecified) | 0.2% | -6% | -2% | -1
CCCn1c2c(c(O)c(C(=O)Nc3ncccc3O)c1=O)CCCC2 | 0.3% | 2% | -9% | -11
CCc1ccc(CN(C)C(C)C(=O)NCc2ccccc2)cc1 (stereo unspecified) | -2.0% | -9% | -6% | .

No new results follow: entries from further up.
SMILES | Rango-impB inh | Rango release inh | miR-21 reporter | GLA inh pH 4.5
Cc1ccc2[nH]c3c(=O)n(CC(=O)NCCc4ccc(Cl)cc4)ncc3c2c1 | -3.7% | -5% | -4%&1% | .
CCN(CC)S(=O)(=O)c1ccc(N2CCOCC2)c(NC(=O)c2ccc(NC(C)=O)cc2)c1 | -2.9% | -2% | -1% | -4
